# Vaccinia mCherry = qHTS for Stage-Specific Inhibitors of Vaccinia Orthopoxvirus: mCherry Reporter Primary qHTS; 0.63% of 310,000 active; Potency, µM (doses to about 36.5 µM), for inactives: at the top dose activity change, negative = inhibition, hits mostly inhibitors; Vaccinia virus mCherry reporter infection, fluorescence; about a quarter of the inactives have no number; active = well fitted inhibition curve with a large enough effect; inconclusive = small, poorly fitted or top-dose-only effect; inactive = no such curve, though single readings can be large or run the other way; tested in A549 cells; also: nearly all actives have a fitted effect of over 35% in size; inactives centre near -10
# VACV Venus inh = qHTS for Stage-Specific Inhibitors of Vaccinia Orthopoxvirus: Venus Reporter Primary qHTS; Vaccinia virus Venus reporter expression, fluorescence; Potency, µM (top dose mostly 36.5 µM), for inactives: top-dose activity change, negative = inhibition, actives largely listed as inhibitors; 0.46% of 330,000 active; AID 720580, 2013; active means well fitted inhibition curve with a large enough effect; inconclusive means small, poorly fitted or top-dose-only effect; inactive means no such curve, though single readings can be large or run the other way; tested in A549 cells; also: nearly all actives have a fitted effect of over 30% in size; inactives centre near -10
# * marks the source's active call; other numbers are inactive results; i = inactive; u = inconclusive; x = no result given; & = joins results of further samples; [ ] = remark or other dose. % is scaled to controls: 0 for no effect and ±100 for the full control effect; potency is read from the fitted curve at half-maximal effect.
SMILES,Vaccinia mCherry,VACV Venus inh
O=C(COC(=O)Cc1ccc(Cl)cc1)NCc1ccc2c(c1)OCO2,-12.2%,-7.5%
CCN(CC)CCn1c2ccccc2c(=O)c2c(O)ccc(O)c21,i,-7.8%
CCOC(=O)CCCCCN(Cc1ccccc1)S(=O)(=O)c1ccc([N+](=O)[O-])cc1,i,-8.6%
COc1cc(OC)c2c(-c3ccccc3)cc(=O)oc2c1C(CCN1CCOCC1)c1ccc2c(c1)OCO2 (stereo not drawn),u,u
Cc1ccc(NC(=O)CCc2c(C)nc3cc(-c4ccccc4)nn3c2C)cc1F,-1.1%,-4.2%
CC(=O)NC1CC2CCCC(C1)N2C(=O)Nc1c(C)cccc1C (stereo not drawn),-1.4%,-4.7%
Cn1c(=O)oc2cc(S(=O)(=O)N3CCCC(C(=O)NCc4ccccc4Cl)C3)ccc21 (stereo not drawn),u,u
CC1(C(=O)NS(=O)(=O)C2CC2)CCCN(C(=O)COCc2ccccc2)C1 (stereo not drawn),3.8%,-1.1%
CC(C)C(=O)N(Cc1cc(=O)[nH]c2ccccc12)c1ccccc1,-10.8%,-24.0%
COc1ccc(C(=O)NCc2nc(-c3cccc(C)c3)no2)cc1OC,-12.6%,-6.9%
CCCCN(C(=O)CNC(=O)c1ccco1)C(C(=O)NC1CCCCC1)c1cccnc1 (stereo not drawn),i,0.0%
COc1ccc(-c2cc3ccc(O)c(CN4CCN(C)CC4)c3oc2=O)cc1OC,-14.9%[7.34 µM],-8.0%[7.34 µM]
Cc1ccc(CNC(=O)CN2CCN(Cc3ccc(F)cc3Cl)C2=O)cc1,4.9%,5.2%
COc1ccc(C(=O)Nc2ccc(NC(=O)Cc3ccccc3)cn2)cc1,50.6%[activator],1.2%
COCCN=C1OC(=O)N2C(=O)C3=C4[C@@H](C[C@H]5C(=O)N(c6ccccc6)C(=O)[C@H]5[C@H]4[C@@]12Cc1ccccc1)[C@H]1C(=O)N(c2ccccc2)C(=O)[C@H]1[C@H]3C,-28.9%,-12.5%
c1coc(-c2nc(-c3ccco3)c(-c3ccco3)nc2-c2ccco2)c1,-9.9%&-9.6%,1.2%&-16.5%
Cc1cc(OC(C)C(=O)NCCc2c[nH]c3ccccc23)c2c(C)cc(=O)oc2c1 (stereo not drawn),0.2%,9.4%
O=C(Nc1cccc(F)c1)c1ccc2c(c1)N(Cc1ccccc1)C(=O)c1ccccc1S2(=O)=O,-23.7%,-16.9%
O=C(Nc1ccccc1Oc1ccccc1)c1cccs1,-11.3%,3.8%
CCNc1nc(NCC)n2c(SCC(=O)Nc3ccccc3C(F)(F)F)nnc2n1,i,-14.7%
CCOc1ccc(CCNC(=O)Cn2ccc3cc(S(=O)(=O)N4CCCCC4)ccc32)cc1,-15.9%,-8.2%
O=C(CCc1c[nH]c2ccccc12)N1CCN(c2ccc(F)cc2)CC1,-6.1%,-15.5%
Clc1ccc2nc(-c3cccc(SC4CCCCC4)c3)c(NCc3ccccc3)n2c1,-10.3%,-8.6%
CCOc1ccc(NC(=NCc2ccc3c(c2)OCO3)SC2CC(=O)N(c3ccc(C(=O)O)cc3)C2=O)cc1 (stereo not drawn),-5.7%,-6.0%
Cc1ccc2c(Cl)cc(Cl)c(O)c2n1,u,u
Cc1noc(C)c1C(=O)OCC(=O)NCCc1ccccc1,-17.8%,-9.5%
COc1ccc(C2CC2/C(C)=N/OC(=O)C2CC2)cc1 (stereo not drawn),i,-22.1%
CC(C)C(C(=O)NC1CCCCC1)N(CC1CCCO1)C(=O)CNS(=O)(=O)c1ccc(F)cc1 (stereo not drawn),i,-16.5%
Cn1c(CNC(=O)c2ccc3c(c2)OCO3)nnc1SCC(=O)Nc1ccc(F)cc1,-13.8%,-17.1%
CCc1ccc(NC(=O)CSc2nc3ccccc3nc2N2CCCC2)cc1,i,-4.9%
Cc1cn([C@H]2C[C@H](O)[C@@H](CNC(=O)CNC(=O)CN)O2)c(=O)[nH]c1=O,-9.0%,2.3%
COc1ccc(N2CCN(C(=O)COC(=O)CCOc3cc(C)ccc3C)CC2)cc1,i,-14.7%
Cc1cc(C)cc(CC(=O)N2CCC2(C)C(=O)NS(=O)(=O)c2ccc(Br)cc2)c1 (stereo not drawn),12.9%,1.9%
CC1CCCN(C(=O)c2ccc(S(=O)(=O)N3CCC(c4nc5ccccc5s4)CC3)cc2)C1 (stereo not drawn),-26.4%,-20.3%
COc1ccc(CCNC(=O)C(=O)N/N=C/c2cccs2)cc1OC,3.0%,-1.3%
CCOc1cc(C(=O)Nc2ccc(N3CCN(S(C)(=O)=O)CC3)cc2)cc(OCC)c1OCC,10.5%,3.2%
CC(C)OCCCN1CN(S(=O)(=O)c2cccs2)c2nc3ccccc3nc21,10.8%,3.3%
C=CCn1c(SCC(=O)c2ccc(F)cc2)nnc1-c1ccc2c(c1)OCO2,i,-20.2%
CCc1nnc(N/N=C/c2ccc(N3CCC(C)CC3)c([N+](=O)[O-])c2)n1N,10µM*,u
Cc1cc(C(=O)CN2C(=O)NC3(CCCCC3C)C2=O)c(C)n1Cc1cccs1 (stereo not drawn),i,-15.8%
CCC1(CC)C(=O)NC(=S)N=C1N,i,-4.5%
COc1ccc(CCN(C)C(=O)CNC(=O)Cc2cccc3ccccc23)cc1OC,-13.0%,-13.7%
CCOc1ccc(S(=O)(=O)N/N=C2/CCCC(=O)C2)cc1,-6.2%,-2.9%
Cc1cccc(C)c1NC(=O)Cn1c(=O)n(Cc2ccco2)c(=O)c2ccc(C(=O)NC3CCCC3)cc21,-7.5%,-13.1%
CC(C)(C)OC(=O)N1C(=O)[C@](OC(=O)c2ccccc2)(c2ccc(F)cc2)c2ccccc21,u,u
Cc1coc2cc3oc(=O)c(CCC(=O)NCc4ccccn4)c(C)c3cc12,-1.0%,2.0%
O=C(Cc1ccccc1)N1CCN(S(=O)(=O)c2ccc([N+](=O)[O-])cc2)CC1,u,u
O=C(NC1CCN(c2ncccn2)CC1)c1c(F)cccc1F,-12.2%,-5.8%
COc1cccc(C(=O)CSc2nnc(-c3cccs3)o2)c1,i,-11.0%
COc1ccc(-c2csc(NC(=O)c3ccc(C(C)(C)C)cc3)c2C(=O)O)cc1,-10.1%[7.34 µM],-22.2%[7.34 µM]
CN1/C(=C\C(=O)c2oc3ccccc3c2N)C(C)(C)c2ccccc21,x,u
CC1(C)CC(=O)C2=C(C1)OC(N)=C(C#N)C2CCc1ccccc1 (stereo not drawn),x,u
CCOc1ncccc1C(=O)Nc1ccc(F)cc1,-0.7%,-4.7%
Cc1c(OCC(=O)NC(Cc2ccc(Cl)cc2)C(=O)O)ccc2c1oc(=O)c1ccccc12 (stereo not drawn),3.2%,-5.6%
CC(C)[C@H](NC(=O)N1CC(=O)Nc2ccccc21)C(=O)N[C@@H](Cc1c[nH]c2ccccc12)C(=O)O,-21.6%,-29.2%
Cc1ccc(NC(=O)CSc2nnc(C)c(=O)[nH]2)cc1,-5.9%,-12.5%
COc1ccc(-c2noc(CCC(=O)N3CCN(c4ccc(C(F)(F)F)cc4)CC3)n2)cc1,-11.2%,-14.8%
CCCNC(=O)c1ccc(N2CCC3(CC2)CC(c2cccc(Br)c2)=NO3)c(N)c1,u,-26.5%
O=C(NCc1ccccc1Cl)c1ccc(CSCc2cccc(F)c2)o1,5.5%,0.6%
CCOC(=O)C1=C(Nc2cccc(Cl)c2)OCC1=O,x,-13.5%

# Structures from the list above containing bromine (two):
SMILES,Vaccinia mCherry,VACV Venus inh
Cc1cc(C)cc(CC(=O)N2CCC2(C)C(=O)NS(=O)(=O)c2ccc(Br)cc2)c1 (stereo not drawn),12.9%,1.9%
CCCNC(=O)c1ccc(N2CCC3(CC2)CC(c2cccc(Br)c2)=NO3)c(N)c1,u,-26.5%

# The list continues:
SMILES,Vaccinia mCherry,VACV Venus inh
COC(=O)CNC(=O)Cc1c(C)n(C(=O)c2ccc(Cl)cc2)c2ccc(OC)cc12,i,-16.5%
Cn1cccc1C(C#N)(CC#N)c1cccc(F)c1C#N (stereo not drawn),i,-6.9%
CCNC(=S)Nc1ccc(Cl)c([N+](=O)[O-])c1,-16.2%,-29.6%
Cc1ccc(OC(=O)c2sc(Cl)nc2C)cc1C,-26.1%,-13.6%
CCc1nc2c(OCc3ccc(F)c(F)c3)cccn2c1N(C)C(=O)c1ccc(OC)cc1,5.5%,-15.6%
COc1ccccc1C(=O)Oc1ccc(C(C)C)cc1,i,-0.6%
CN(Cc1cccc([N+](=O)[O-])c1)Cc1cccc2ccccc12,u,-8.6%
Cc1ccccc1-n1c(C)cc(/C=N/Nc2ccc([N+](=O)[O-])cn2)c1C,x,-22.7%
O=C(c1ccccc1Sc1c(Cl)cccc1[N+](=O)[O-])N1CCOCC1,-23.5%,-17.1%
COc1ccc(CCNC(=O)c2cc(=O)c3ccc(C)cc3o2)cc1OC,0.4%&-2.1%,-16.9%&0.1%
OC(CNCC1(N2CCCCC2)CCCCC1)COc1ccc(Cl)cc1Cl (stereo not drawn),-7.0%,-15.7%
COc1cc(/C=C2/NC(=O)N(Cc3ccccc3F)C2=O)ccc1O,u,-17.4%
COc1ccc(N2CCN(S(=O)(=O)c3ccc(OC)cc3)CC2)cc1,-13.6%,-12.0%
Cc1ccc2[nH]c(C(=O)NN=C3CCCCC3)c(-c3ccccc3)c2c1,-31.5%,-14.9%
CC(C)NC(=O)CSc1nnc(-c2ccc(C(C)(C)C)cc2)n1C,-3.3%,-2.0%
CCOC(=O)c1cc(-c2ccccc2)n(CCCC(=O)Nc2ccc(C(C)C)cc2)c1C,u,-30.0%
COc1cccc(OCCCOc2ccccc2C(C)C)c1,-14.1%,-2.2%
CCOC(=O)c1ccc(NC(=O)c2nc[nH]c2C(=O)N(C)Cc2ccccc2)cc1,i,-22.2%
CN(Cc1ccccc1)C(=O)[C@H]1CCC(=O)N1Cc1ccco1,-6.8%,-1.5%
O=c1c2ccccc2c(-c2ccccc2)nn1Cc1ccc(Cl)cc1,-14.3%,-19.4%
COc1ccc(C(=O)NC(=S)NCc2ccco2)cc1OC,x,-11.9%
O=C(O)c1[nH]c2ccc(Cl)cc2c1CC(=O)N1CCN(c2ccccc2)CC1,-12.2%,29.9%
CN(C(=S)SCc1ccccc1)C1CCS(=O)(=O)C1 (stereo not drawn),i,0.3%
COc1ccc(CCNC(=O)CN2C(=O)COc3ccc(S(=O)(=O)N4CCOCC4)cc32)cc1OC,-11.7%,-8.7%
CCOc1ncccc1C(=O)Nc1ccc2c(c1)OCO2,-1.8%,1.6%
CCN(CC)S(=O)(=O)c1ccc(O)c(C(=O)OCC(=O)Nc2ccc(OC(F)(F)F)cc2)c1,i,-13.2%
COC(/C=C/Nc1ccc(Br)cc1)=C(C#N)C#N,-1.1%,-6.3%
CCC(=O)NC1=C(Cl)C(=O)C(NC(=O)CC)=C(Cl)C1=O,-9.3%,u
Cc1ccccc1-n1c(C)nnc1SCC(=O)NNC(=O)c1ccccc1,-2.3%,-7.4%
Cc1cccn2cc(CCNS(=O)(=O)c3cccc([N+](=O)[O-])c3)nc12,i,-5.2%
COc1ccc(C2=NN(C(C)=O)C(c3cccs3)C2)cc1OC (stereo not drawn),u,-16.6%
O=C(CNC(=O)c1ccco1)NCC(=O)OCc1ccc(Cl)cc1Cl,-2.3%,-5.6%
COc1ccccc1-c1sc2ccccc2c1-c1ccc2c(c1)OCCO2,i,-9.0%
Cc1ccc2[nH]c(O)c(N=Nc3nc4ccccc4s3)c2c1,-16.9%,26.8%
O=C1C(Cl)=C(NCc2ccco2)C(=O)c2ccccc21,u,u
COc1ccc(S(=O)(=O)N2CCN(C(=O)[C@H](Cc3ccccc3)NC(=O)c3ccco3)CC2)cc1,-10.5%,-6.1%
Cn1c(O)c(N=NC(=O)Cc2c[nH]c3ccccc23)c2ccccc21,-21.0%,-9.5%
COC(=O)C1CN(Cc2ccccc2)C(=O)C1=O (stereo not drawn),i,1.7%
O=C(O)c1ccccc1C(=O)NCc1ccccc1,x,8.7%
COc1ccc(N2C(=O)CC(N(CCc3ccccc3)C(=O)/C=C/C(=O)O)C2=O)cc1 (stereo not drawn),i,-4.1%

# The final 2 entries of the section before come first, to join the parts.
SMILES,Vaccinia mCherry,VACV Venus inh
O=C(O)c1ccccc1C(=O)NCc1ccccc1,x,8.7%
COc1ccc(N2C(=O)CC(N(CCc3ccccc3)C(=O)/C=C/C(=O)O)C2=O)cc1 (stereo not drawn),i,-4.1%
CC(=O)N(Cc1cc(=O)[nH]c2ccccc12)c1ccc(C)cc1,x,-4.6%
CCc1ccc(-n2c(SCC(=O)N3CCC(C(=O)O)CC3)nnc2-c2ccncc2)cc1,i,-2.8%
CC(=O)NC(=O)COC(=O)/C=C/c1c(C)nn(Cc2c(Cl)cccc2Cl)c1Cl,x,-13.5%
Cc1ccc(C(=O)Nc2ncccc2O)cc1S(=O)(=O)N1CCCCC1,-1.7%,-12.8%
O=c1c2ccccc2sc2ccc(Cl)cc12,-12.3%,-4.3%
O=C(C[n+]1ccccc1Cl)c1cccc([N+](=O)[O-])c1,-13.6%,-18.1%

# Ordered by molar mass (largest number first): 3 of the compounds above.
SMILES,Vaccinia mCherry,VACV Venus inh
CCc1ccc(NC(=O)CSc2nc3ccccc3nc2N2CCCC2)cc1,i,-4.9%
CCOc1ccc(S(=O)(=O)N/N=C2/CCCC(=O)C2)cc1,-6.2%,-2.9%
O=C1C(Cl)=C(NCc2ccco2)C(=O)c2ccccc21,u,u

# Assay outcomes deposited in PubChem BioAssay by National Center for Advancing Translational Sciences (NCATS).
